High-throughput results: PubChem BioAssay, National Center for Advancing Translational Sciences (NCATS)
miR-21 reporter – qHTS Assay for Modulators of miRNAs and/orActivators of miR-21; HeLa miR-21 FLuc reporter, luciferase, 48 h; Potency, µM (highest dose often 38.3 µM), inactives show top-dose reporter change, positive = more light; 340,000 tested, under 10 active; AID 2288, 2010; active = well fitted rising curve with a large enough effect; inconclusive = small, poorly fitted or top-dose-only effect; inactive = no such curve, though single readings can be large or run the other way;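 also: % of control where 0% means no effect; miR-21 action dims this reporter so a rising signal means less miR-21 action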
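HeLa cells endogenously expressing miR-21, stably carrying CMV-driven firefly luciferase with a downstream miR-21 binding site, 2000 cells/well. Titrations up to approximately 40 uM, 48 hours; luciferase luminescence read.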
Rango complex inh – qHTS Assay for Inhibitors of Rango (Ran-regulated importin-beta cargo) - Importin beta complex formation; Importin subunit beta-1 (Homo sapiens), Q14974; hit rate 0.031% among 340,000; Potency, µM (series often up to 92.2 µM), without a hit: top-dose inhibition of complex formation; Rango CFP/YFP FRET sensor + importin beta, 45 min; active = rising FRET ratio curve, often small or poorly fitted; inconclusive = mostly compound fluorescence or quenching in the first reads; inactive = flat curves in all reads;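 also: potency is read from the fitted curve at half-maximal effect; 0% = DMSO wells and 100% = buffer wells lacking importin beta; nearly all actives have a fitted effect of over 15% in size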
Target sequence (Q14974 whole entry, looked up): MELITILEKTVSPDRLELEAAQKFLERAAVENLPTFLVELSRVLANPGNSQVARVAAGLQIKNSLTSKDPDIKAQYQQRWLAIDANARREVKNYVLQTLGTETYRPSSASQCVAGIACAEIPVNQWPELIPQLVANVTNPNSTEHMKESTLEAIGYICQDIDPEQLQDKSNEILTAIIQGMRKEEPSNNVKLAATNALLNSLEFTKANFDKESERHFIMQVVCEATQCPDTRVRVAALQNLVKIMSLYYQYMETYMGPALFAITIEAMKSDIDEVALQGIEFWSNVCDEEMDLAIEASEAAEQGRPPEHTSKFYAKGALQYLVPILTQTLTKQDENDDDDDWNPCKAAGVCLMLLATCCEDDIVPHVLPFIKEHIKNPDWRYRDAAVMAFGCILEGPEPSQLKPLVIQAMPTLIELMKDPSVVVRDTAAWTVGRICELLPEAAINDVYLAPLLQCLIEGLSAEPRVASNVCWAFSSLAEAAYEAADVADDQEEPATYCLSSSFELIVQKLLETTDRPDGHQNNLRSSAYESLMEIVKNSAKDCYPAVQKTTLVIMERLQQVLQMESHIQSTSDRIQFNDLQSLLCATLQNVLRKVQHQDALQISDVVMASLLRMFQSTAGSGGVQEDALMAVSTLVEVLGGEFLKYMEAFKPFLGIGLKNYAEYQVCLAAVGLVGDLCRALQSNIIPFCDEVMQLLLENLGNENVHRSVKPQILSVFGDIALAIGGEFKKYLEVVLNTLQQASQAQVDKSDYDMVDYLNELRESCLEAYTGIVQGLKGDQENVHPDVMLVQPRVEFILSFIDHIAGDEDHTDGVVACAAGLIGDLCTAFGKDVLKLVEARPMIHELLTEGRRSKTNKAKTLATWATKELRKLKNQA
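Inhibition scored from the CFP 486 nm/YFP 530 nm FRET ratio 45 min after adding 0.125 microM importin beta to 50 nM Rango biosensor preincubated 5 min with compound (room temperature, PBS with DTT, Tween-20, BSA). No-importin wells as positive control.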
Rango dissoc inh – qHTS Assay for Inhibitors of RanGTP induced Rango (Ran-regulated importin-beta cargo) - Importin beta complex dissociation. Biochemical FRET Rango-importin beta, RanGTP-induced dissociation. hit rate 0.071% among 340,000. Snurportin-1 (Homo sapiens) + GTP-binding nuclear protein Ran (Homo sapiens) + Importin …. Potency, µM (top dose mostly 46.1 µM), for inactives: at the top dose activity change, negative = inhibition; active means falling FRET ratio curve, often poorly fitted, with flat reads before Ran was added; inconclusive means other falling curves, or compound fluorescence or quenching; inactive means flat or rising ratio curve;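 also: potency is read from the fitted curve at half-maximal effect; % of control where 0% means no effect; nearly all actives have a fitted effect of over 45% in size; -100% = wells without RanGTP and RCC1; the record marks most hits as doubtful in a second field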
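Recombinant Rango FRET biosensor (EYFP–snurportin 1 IBB–cerulean CFP10) at 0.1 uM premixed with 0.25 uM importin beta in PBS, 1 mM DTT, 0.02% Tween-20, 0.1% BSA. Compound added 5 min; RanGTP-RCC1 (0.6 uM Ran, 2 mM GTP, 0.2 uM RCC1) then triggers release, read at 45 min.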
GLA inh pH 4.5 – qHTS Assay for Inhibitors of Human alpha-Galactosidase at pH 4.5. activity change, negative = inhibition, % at 105 µM. 230,000 tested, under 10 active. AID 1467, 2008. purified enzyme, 4-MU-alpha-Gal fluorescence, pH 4.5. Alpha-galactosidase A (Homo sapiens), P06280; inconclusive = small, poorly fitted or top-dose-only inhibition, or a rising curve; inactive = flat fitted curve, though single readings scatter; no compound was filed as active;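 also: 0% = full activity with enzyme and -100% = basal without enzyme; dose as in the result columns while the protocol names 77 µM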
Starred values were filed as active, the others as inactive; ? = inconclusive; / = not tested or not shown. Only part of the results is shown; rates above refer to the full screens.

miR-21 reporter	Rango complex inh	Rango dissoc inh	GLA inh pH 4.5	Compound
-1%	-1.8%	0%	2	Cc1ccc(C)n1NC(=O)c1ccccc1
12%	-4.1%	-19%	2	Cc1cc(C)c(C(=O)c2ccc(C(=O)N(C(C)C)C(C)C)cc2)c(C)c1
/	-1.4%	14%	/	COc1ccc(C)cc1NC(=O)C(c1ccccc1)N1CCN(CC(=O)N2CCOCC2)CC1 (centres undefined)
5%	-2.6%	1%	3	COC(=O)c1ccc(S(=O)(=O)NCc2ccccc2)n1C
-2%	-1.0%	-4%	-2	CCC(=O)N1CC2(C)CN(C(=O)CC)CC(C)(C1)C2
/	0.1%	3%	/	CC1CCCC(C)N1C(=O)COC(=O)CCC(=O)c1cccs1 (centres undefined)
-1%	4.6%	2%	1	CC(=O)c1cc(C#N)c(N2CC(C)OC(C)C2)nc1C (centres undefined)
-2%	-3.2%	17%	-4	Cc1nc(SCC(N)=O)c(C#N)c(C)c1C
4%	5.2%	-10%	1	S=C(NCCN1CCOCC1)Nc1ccc(Nc2ccccc2)cc1
-3%	?	?	-3	O=c1c2c(-c3ccccc3)csc2ncn1/N=C/c1c2ccccc2cc2ccccc12
-1%	-0.1%	1%	-5	CCCc1c(O)nc(SCc2ccccc2)[nH]c1=O
-1%	2.5%	-3%	7	Cc1cccc(NC(=O)CSC(N)=O)c1C
?	1.9%	?	-24	CC(c1ccccc1)N1C(=O)/C(=C/c2ccncc2)SC1=S (centres undefined)
3%	3.1%	2%	/	CC(C)CCNC(=O)CN1C(=O)NC(c2ccccc2)(c2ccccc2)C1=O
-11%	0.3%	2%	-5	COc1ccc(CCNC(=S)NC(=O)c2cccc(Cl)c2)cc1OC
2%	?	?	3	COc1ccc(CNC(=O)CN2C(=O)C3CCCN3c3ncc(Cl)cc32)cc1 (centres undefined)
-57%	?	?	8	Cc1ccc2nc(-c3ccc(NS(=O)(=O)c4c(C)n(C)c(=O)n(C)c4=O)cc3)sc2c1
/	-0.4%	3%	/	CCOc1ccc(NC(=S)NS(=O)(=O)c2cc(Br)ccc2OCC)cc1
-17%	4.9%	-6%	/	CCn1c(C)nnc1SCC(=O)Nc1ccc2c(c1)OCCO2
-13%	-1.0%	2%	-7	COc1cc(NC(=O)CN2CCC(C)CC2)c(C)cc1[N+](=O)[O-]

Compound profiles (already shown). Order of screens: miR-21 reporter | Rango complex inh | Rango dissoc inh | GLA inh pH 4.5
`Cc1nc(SCC(N)=O)c(C#N)c(C)c1C` is listed with -2% | -3.2% | 17% | -4
`COc1ccc(CCNC(=S)NC(=O)c2cccc(Cl)c2)cc1OC` is listed with -11% | 0.3% | 2% | -5
`CCC(=O)N1CC2(C)CN(C(=O)CC)CC(C)(C1)C2` is listed with -2% | -1.0% | -4% | -2
`CCOc1ccc(NC(=S)NS(=O)(=O)c2cc(Br)ccc2OCC)cc1` is listed with / | -0.4% | 3% | /

Next section
miR-21 reporter	Rango complex inh	Rango dissoc inh	GLA inh pH 4.5	Compound
-10%	0.3%	-26%	/	O=C(OCCN1CCOCC1)c1ccccc1
0%	-0.3%	0%	9	CC1CN(CCCOc2ccc([N+](=O)[O-])cc2)CC(C)O1 (centres undefined)
-50%	0.2%	8%	4	O=Cc1ccc(OCc2ccccn2)cc1
-6%	?	-16%	-7	COc1ccc(Cl)cc1CN1CCN(c2nc(C)cc(C)c2C#N)CC1
16%	1.4%	16%	/	Cc1cc(O)cc(C)c1NS(=O)(=O)c1ccc2ccccc2c1
0%	0.3%	16%	2	CC(C)c1nnc(NC(=O)CCC(=O)Nc2ccccc2)s1
1%	2.1%	-8%	1	C#CC[N+]1(CC#Cc2cccc3ccccc23)CCOCC1
4%	1.2%	13%	7	COc1ccc(Nc2nc3c([nH]2)c(=O)[nH]c(=O)n3C)cc1
0%	0.6%	13%	/	C=CCn1c(SCC(=O)Nc2ccc(F)cc2)nc2ccccc2c1=O
-2%	-1.4%	-28%	/	CC(C)(CNC(=O)Cc1ccc(Cl)cc1Cl)N1CCCCC1
-1%	4.6%	2%	2	O=[N+]([O-])c1cccc(-c2cnc3ccccc3n2)c1
/	-4.2%	?	/	Cc1noc(C)c1COc1ccc(C(=O)N2CCN(S(=O)(=O)c3ccccc3)CC2)cc1
/	3.2%	0%	/	COc1ccc(C(=O)OCC(=O)NC2CCCCCC2)c(OC)c1
-3%	-9.3%	0%	/	CS(=O)(=O)N(CC(=O)N1CCN(Cc2ccccc2)CC1)c1cccc(Cl)c1
-5%	-1.2%	-7%	0	Cc1nn(-c2ccccc2)c2sc(C(=O)N3CCc4ccccc4C3)cc12
3%	-3.4%	40%	8	O=C(COC(=O)c1cc(S(=O)(=O)N2CCCCC2)ccc1Cl)NCc1ccco1
10%	1.3%	10%	0	CC1(C)CC2CC(C)(CN2c2ncnc3ccccc23)C1 (centres undefined)
-17%	-4.3%	-4%	1	COc1ccc(C(=O)N/C(N)=N/c2nc3ccccc3o2)cc1
/	3.1%	-6%	/	CN1CCN(CCCNc2nc3ccccc3c3nc(-c4ccccc4)nn23)CC1
13%	2.0%	-5%	0	CCN(CC)c1ncnc2c1ncn2Cc1c(Cl)cccc1Cl
15%	4.3%	6%	5	c1cc(C2CCN(Cc3nc(-c4ccc5c(c4)OCO5)no3)CC2)ccn1
3%	-0.8%	6%	5	CCOC(=O)C1C(=O)NC(N2CCN(c3ccccc3)CC2)=NC1c1ccccc1 (centres undefined)
19%	-2.8%	-18%	-20	O=C(Nc1cccc(Cl)c1)c1cc(S(=O)(=O)NCCc2ccc(Cl)cc2)ccc1F
1%	-4.9%	-5%	/	Cc1cccc(NS(=O)(=O)c2ccc(Cl)cc2)n1
-4%	-2.2%	-2%	-7	CN(c1ccc(C(=O)NCc2ccccc2)cc1)S(C)(=O)=O
-5%	-1.5%	-2%	-11	Cc1ccc(-c2nn3c(C)nnc3c3ccccc23)cc1S(=O)(=O)NCc1ccco1
-7%	0.3%	2%	/	COc1ccc(CCNc2ccc(S(N)(=O)=O)cn2)cc1
/	0.2%	-1%	/	Cc1ccc(S(=O)(=O)N2[C@@H](c3ccc(F)cc3)C(C(=O)O)=CC[C@H]2c2cccs2)cc1
-8%	2.1%	-16%	-17	Cn1c(N)c(C(=O)COC(=O)C2(c3ccc(F)cc3)CCCC2)c(=O)n(C)c1=O
-7%	-1.2%	-2%	-5	O=S(=O)(c1ccc(Cl)s1)N1CCN(c2ncccn2)CC1
-7%	0.6%	3%	/	CC(C)Sc1nc2c(cnn2-c2ccc(Cl)cc2)c(=O)[nH]1
6%	-3.2%	9%	/	COc1ccc(C(=O)NCc2nnc(SCC(=O)c3ccccc3)o2)cc1
2%	0.1%	-19%	7	Cc1ccnc(N2C(=O)C3C4CC(C(Br)C4Br)C3C2=O)c1 (centres undefined)
2%	14%	-18%	9	COc1ccc(Cc2nnc(SCC(=O)N3CCCC3)o2)cc1
-5%	-2.9%	31%	/	O=C(Nc1cccc2ccccc12)NC1CCCCC1
-9%	1.0%	3%	-10	COC(=O)c1cc(Cl)c(NC(=O)Cc2ccccc2)cc1OC
15%	3.0%	8%	4	c1ccc(C[n+]2cccc(-c3ccccc3)c2)cc1
-1%	4.6%	-3%	-22	COc1cccc(NC(=O)COc2cccc(-n3cnnn3)c2)c1
-4%	-2.6%	-5%	/	NS(=O)(=O)c1ccc(CCNC(=O)c2ccc3c(c2)OCO3)cc1
-3%	-3.3%	10%	/	O=C(OCCOCCN=C1NS(=O)(=O)c2ccccc21)c1ccc(F)cc1
/	-1.6%	-2%	/	CCOc1ccc(OCCC(=O)NNC(=O)c2ccccc2Cl)cc1
-3%	0.6%	0%	3	CCN(CC)S(=O)(=O)N1CCC(C(=O)NC(C)CCc2ccccc2)CC1 (centres undefined)
-30%	-2.6%	16%	-5	Cc1ccccc1-c1nc(Cc2ccc(Cl)cc2)no1
-4%	-0.6%	-16%	-5	O=C(CCc1c[nH]c2ccccc12)NCC1CCCO1 (centres undefined)
/	0.1%	-3%	/	CC1CCc2sc(C(=O)NNC(=O)c3ccncc3)cc2C1 (centres undefined)
?	-1.2%	1%	-6	CC1=CC(=O)C(C(C)C)=C/C1=N/OS(=O)(=O)c1ccccc1
-18%	-0.1%	-4%	8	Cc1ccc(C2CC(c3cccc(C)c3)n3nc(N)nc3N2)cc1 (centres undefined)
6%	-4.8%	-11%	-3	CCOc1cc(CNn2c(C)nnc2SCC(=O)NC(C)(C)C)ccc1OCC(=O)NC(C)(C)C
-3%	-0.4%	-6%	-3	CN1CCN(c2ccc(S(=O)(=O)N3CCCCC3)cc2NC(=O)c2ccc3ccccc3c2)CC1
/	-1.0%	2%	/	Cc1nc(SCC(=O)N2CCOCC2)c2c3c(sc2n1)CCC3
1%	9.7%	2%	/	COc1cccc(NC(=O)CCCN2C(=O)C3CC=CCC3C2=O)c1 (centres undefined)
-53%	-1.5%	-4%	/	Oc1ccc(-c2csc(Nc3ccccn3)n2)cc1
-68%	1.5%	36%	/	COc1ccccc1N1CCN(/N=C/c2cccc(Cl)c2)CC1
1%	0.0%	1%	10	Nc1ccc(N2CCOCC2)cc1C(F)(F)F
1%	-0.7%	5%	-17	COC(=O)C1=C(C)NC(=O)C1(NC(=O)c1ccncc1)C(F)(F)F (centres undefined)
-28%	0.6%	8%	-4	COc1cccc(/C=N\NC(=O)C2=NNC(=O)C2C)c1O (centres undefined)
/	0.9%	-11%	/	CC(C)(C)C(=O)Nc1cccc(S(=O)(=O)NC2=NCCC2)c1
4%	3.8%	2%	7	Cc1cc(=O)n2c(sc3ccccc32)c1C#N
-10%	6.4%	-5%	4	CCOC(=O)C1CCCN(Cc2nc(CC3CC3)no2)C1 (centres undefined)
6%	0.8%	-8%	/	COc1cccc(CN2CCCC(C(=O)Nc3ccc(-c4cscn4)cc3)C2)c1 (centres undefined)

An excerpt from above in order of the miR-21 reporter value, highest first.
miR-21 reporter	Rango complex inh	Rango dissoc inh	GLA inh pH 4.5	Compound
4%	3.8%	2%	7	Cc1cc(=O)n2c(sc3ccccc32)c1C#N
1%	9.7%	2%	/	COc1cccc(NC(=O)CCCN2C(=O)C3CC=CCC3C2=O)c1 (centres undefined)
-3%	-0.4%	-6%	-3	CN1CCN(c2ccc(S(=O)(=O)N3CCCCC3)cc2NC(=O)c2ccc3ccccc3c2)CC1

(further entries)
miR-21 reporter	Rango complex inh	Rango dissoc inh	GLA inh pH 4.5	Compound
/	1.2%	6%	/	O=C(c1cc(-c2ccco2)nc2ccccc12)N(Cc1nnc(-c2ccc(Cl)cc2)o1)C1CC1
1%	-2.8%	-20%	9	CCCN(CCC)C(=O)Cc1coc2ccc3ccccc3c12
-30%	0.9%	-1%	-2	COc1ccc(NC2=CC(=O)N(C)C2=O)cc1
-4%	-0.4%	4%	-2	c1cncc(C(c2nnnn2C2CCCC2)N2CCCC2)c1 (centres undefined)
-10%	1.4%	2%	-1	O=C(Nc1cc(C(F)(F)F)ccc1N1CCOCC1)c1ccc(F)cc1
25%	7.4%	-11%	-5	CCN1CCN(Cc2ccc(NC(=O)c3cc(NC(=O)N4CCNC4=O)cc(OC)c3)cc2C(F)(F)F)CC1
?	6.3%	-6%	1	COC(=O)c1c(NC(=S)NN2CCN(C)CC2)sc2c1CCC(C)C2 (centres undefined)
-50%	-3.0%	-10%	10	COc1ccc(Cc2nnc(-c3ccccc3)o2)cc1
5%	-2.7%	-7%	-15	Cc1ccc(NC(=O)CCN2CCN(C/C=C/c3ccccc3)CC2)cc1C
-3%	2.1%	-1%	-6	COc1ccccc1C/C(N)=N/OC(=O)COc1cccc(C)c1
0%	0.2%	-1%	4	CCN(CC)Cc1cc(C(C)=O)ccc1O
9%	0.7%	10%	0	O=C1OCCC1Sc1nnc(-c2ccccc2)o1 (centres undefined)
-5%	0.3%	0%	-1	CCCNC(=O)NC(=O)c1cnccc1C(F)(F)F
11%	-1.8%	1%	-4	COc1cc(/C=N/N=C2/SCC(=O)N2c2ccc(O)cc2)ccc1O
